Screening data: PubChem, several laboratories
Mtb hypoxia rep – Mtb hypoxia fluorescent reporter inhibition | M. tuberculosis hypoxia-regulated fluorescent reporter, fluorescence | fluorescence inhibition, % (concentration not given with the values) | hit rate 0.1% among 300,000 | AID 1159583;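 active = 35 to 45% if threefold the growth effect, above 45% if 1.5-fold the growth effect; inactive = the rest, general growth blockers included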;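 also: wells of about 50 µL received 100 nL stock; 0% = vehicle wells and 100% = reference inhibitor wells; whole bacteria with a GFP reporter of the hypoxia response; strong numbers were not always called active; many hits fall short of the cut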
RN4220 kill – S. aureus RN4220 growth inhibition. AID 1259311. OD600, 16 h. hit rate 0.33% among 330,000. inhibition, % (concentration not given with the values);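 active = z-score of -3 or lower and OD600 up to 0.18 on both plates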;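 also: plate controls were untreated cells for no effect and reference antibiotic for full effect; stock transfer was 100 nL into about 80 µL; one replicate is shown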
Sa ugtP lethal – growth inhibition of S. aureus ugtP deletion strain. hit rate 0.54% among 330,000. growth inhibition, % (concentration not given with the values). S. aureus RN4220 ugtP deletion, OD600 growth, 16 h; some inactives read as strong as hits;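 active = z-score under -3 and OD600 up to 0.15 on both plates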;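 also: plate controls were untreated wells for no effect and antibiotic for full effect; wells of about 80 µL received 100 nL stock; the first replicate is given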
BJeLR viability – BJeLR cell viability loss; BJeLR (HRASV12) viability, CellTiter-Glo ATP luminescence, 48 h; reference of the scale not given here; inhibition, % (concentration not given with the values); hit rate 0.17% among 300,000;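 active = replicate mean above 50%; inconclusive = above 50% but judged a plate artefact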;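 also: 50 nL library stock added to about 25 µL; numbers are from one replicate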
PrP UTR inh – inhibition of PrP 5' UTR reporter expression; cell-based PrP 5' UTR mRNA reporter, plate reader; inhibition, % (test concentration not listed); hit rate 0.35% among 340,000; AID 488862;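 active = every replicate at 50% or more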;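 also: 0 = median of the neutral control wells; tested in H4 reporter cells; numbers are from one replicate; inactives centre near -14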
Bead autofluor – compound fluorescence in toxin protease inhibitor counterscreen. fluorescence intensity (test concentration not listed). compound autofluorescence counterscreen, microsphere flow cytometry; active compounds read high. hit rate 3.1% among 360,000;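 active = at least 3 SD above the mean of all compounds, about 16000 in these data; inconclusive = too few beads counted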;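 also: 100 nL of 1 mM stock went into each well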
Mtb hypoxia rep growth – second read-out of Mtb hypoxia rep, no call of its own (marks repeat the call); growth inhibition, %; measured here: M. tuberculosis growth (absorbance);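 0% = vehicle and 100% = reference antibiotic; read after six days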
* = called active by the depositor; ? = inconclusive; . = no result given; & = joins results of further samples.

SMILES | Mtb hypoxia rep | Mtb hypoxia rep growth | RN4220 kill | Sa ugtP lethal | BJeLR viability | PrP UTR inh | Bead autofluor
CC(OC(=O)/C=C/c1cccs1)C(=O)NC1CCCCC1C (centres undefined) | -13 | -2 | 7.7 | -3 | -3 | -16 | 5877
COCC(=O)Nc1nc2ccc(C)cc2s1 | 1 | 8 | -2.1 | -4 | 1 | -73 | 4218
CCCCOc1ccc(C(=O)Nc2ccc(S(=O)(=O)Nc3cc(C)on3)cc2)cc1OC | 11 | 11 | 11 | 17 | -4 | -3 | 2487
C[N+]1(CC2COC(c3ccco3)O2)CCCCC1 (centres undefined) | 16 | 1 | 0.7 | 5 | -9 | -5 | 3243
COc1cccc(OCCOc2ccccc2[N+](=O)[O-])c1 | . | . | 3.8 | 1 | 1 | -51 | 2159
CCOC(=O)c1ccc(NC(=O)N2CCN(C(=O)C3CCCO3)CC2)cc1 (centres undefined) | 10 | 8 | 7.0 | 10 | -3 | -21 | 2582
Cc1cccn2c(=O)c(C=O)c(N3CCN(c4ccc(F)cc4)CC3)nc12 | 8 | 10 | 1.0 | 1 | -1 | 0 | 2237
Cc1ccc2c(c1)c1c(n2CC(O)Cn2c(C)nc3ccccc32)/C(=N\O)CCC1 (centres undefined) | . | . | . | . | 9 | -16 | 2693
CCOC(=O)C1CCN(C(=O)c2ccccc2NS(=O)(=O)c2ccc(C)cc2)CC1 | 7 | 18 | 0.3 | 2 | 0 | -7 | 4427
Cc1cccc(C)c1NC(=O)C1CC2CCC1C2 (centres undefined) | 12 | 3 | 3.3 | 4 | -18 | -12 | 3529
NC(=O)c1ccsc1NC(=O)CS(=O)(=O)c1ccc(F)cc1 | 3 | 4 | 2.9 | 4 | 5 | -11 | ?
Cc1nn(C)c(C(=O)Nc2ccn(C34CC5CC(CC(C5)C3)C4)n2)c1[N+](=O)[O-] | 4 | 4 | 7.2 | -4 | 4 | 6 | 1954
COc1ccc([C@@H]2CC=C(C(=O)O)[C@H](c3ccc(Br)cc3)N2S(=O)(=O)c2ccccc2C)cc1 | -2 | 5 | 25 | 8 | . | -27 | 3812
Cc1csc(NC(=O)c2cnc3ccccc3n2)n1 | 4 | 4 | 4.4 | 1 | -1 | 13 | 6558
COc1ccc(C(=O)NC2CCCN(Cc3ccccc3F)C2)c(OC)c1OC (centres undefined) | 7 | 13 | 4.1 | 4 | -6 | -32 | 3814
CCCc1nc(C)c2c(=O)[nH]c(-c3cc(S(=O)(=O)N4CCN(CC)CC4)ccc3OCC)nn12 | 6 | 4 | 3.7 | 4 | -2 | -7 | 4084
COc1ccc(/C=N\NC(=S)SCN2C(=O)C3CCC(C)(C2=O)C3(C)C)cc1 (centres undefined) | . | . | . | . | -5 | -8 | 4609
COc1cccc(/C=C/C(=O)NCc2ccc(S(N)(=O)=O)cc2)c1 | 3 | -4 | 2.4 | 11 | 9 | -20 | 4442
CNC(=O)c1ccc2snnc2c1 | 1 | 5 | 16 | 5 | 1 | -16 | 5939
CCN1CCN(c2ncnc3sc4c(c23)CCC(C)C4)CC1 (centres undefined) | 6 | 4 | -0.7 | 7 | 6 | . | 4188
CCc1c(C)nc2[nH]nc(NC(=O)C(F)(F)F)n2c1=O | 5 | -6 | -1.5 | 3 | 2 | -40 | 7798
CCOC(=O)C1=C(C(F)(F)F)Nc2ncnn2C1c1cccc(OC)c1OC (centres undefined) | -12 | 5 | 0.1 | -1 | 6 | -13 | 2574
CCC1=C(OC(=O)N(CC)CC)N2C(=O)OC(=NCCc3c[nH]c4ccccc34)[C@]2(C)[C@H]2C1=CC[C@H]1C(=O)N(CC)C(=O)[C@H]12 | . | . | . | . | -14 | -18 | 3451
CC(=O)c1sc(NN=Cc2cccc(Br)c2)nc1C | 12 | 2 | -2.4 | -9 | . | . | .
Cc1ccc(C(=O)NCCN2C3=NC[C@H](Cc4ccc(O)cc4)N3C[C@H]2Cc2ccc(O)cc2)cc1Br | . | . | . | . | -10 | -3 | 3709
Cc1oc2ccc(O)cc2c1C(=O)c1ccc(Br)cc1 | -5 | 6 | -0.2 | -8 | -1 | -20 | 5285
Cc1ccccc1NC(=O)NNC(=O)CCc1ccccc1 | 12 | -3 | -0.2 | 1 | 1 | -18 | 5538
COc1ccccc1NC(=O)Nc1nnc(CC(=O)Nc2ccccc2)s1 | 15 | 12 | 1.7 | -5 | -7 | . | .
CNc1nc(NC)nc(-n2c(C(F)(F)F)nc3ccccc32)n1 | . | . | -2.0 | 3 | -2 | -9 | 3788
CC(C)C(=O)Nc1ccc(S(=O)(=O)N2CC3CC(C2)c2cccc(=O)n2C3)cc1 (centres undefined) | -7 | 2 | 2.2 | 3 | -1 | -15 | 2648
CCOc1ccccc1-c1nc(CN2CCCN(C(=O)c3ccco3)CC2)c(C)o1 | 10 | 0 | 2.1 | 12 | -10 | -52 | 7990
O=C(Cc1ccc(Br)cc1)N/N=C/c1cccnc1 | . | . | . | . | -9 | -30 | 6074
COc1ccc(Cl)cc1S(=O)(=O)NCc1ccncc1 | 10 | 13 | 2.3 | 2 | 4 | -15 | 5546
Cc1ccc(C)c(S(=O)(=O)Nc2ccc(C(=O)N3CC(C)OC(C)C3)cc2)c1 (centres undefined) | 7 | 2 | 2.2 | 4 | . | . | 5772
Cc1ccc(OCC(=O)Nc2cc(S(=O)(=O)N3CCCCC3)ccc2N2CCN(C)CC2)c(C)c1 | 9 | 8 | 2.3 | -2 | 4 | 9 | 6442
O=C(Nc1ncn[nH]1)C(F)(F)C(F)F | 10 | 8 | 8.4 | 4 | -4 | -12 | 3222
C=CCc1ccccc1OCC(=O)N/N=C/c1ccccc1OCC | . | . | . | . | -1 | -19 | 2153
CCOc1ccc(-c2nc(C#N)c(NCC(C)C)o2)cc1 | 8 | 11 | -1.3 | 1 | -1 | -27 | 9514
CCCC(O)(CCC)C(=O)NN(C(=O)CCl)c1cccc(C)c1 | 18 | 10 | 8.0 | 1 | -2 | -13 | 3578
COc1ccc(-n2cnnc2SCC(=O)Nc2cccc([N+](=O)[O-])c2)cc1 | 1 | -4 | -8.0 | -4 | -7 | -9 | 4433
Cc1nc(-c2nnc(SCC(=O)Nc3ccc(C(F)(F)F)cc3)n2C)cs1 | 17 | 5 | 5.7 | 6 | -4 | -8 | 6112
COc1c(Cl)cc(Cl)cc1C(=O)Nc1ccc(C(=O)O)cc1 | 5 | 8 | 7.6 | 12 | -8 | -23 | 2299
Cc1ccccc1N1C(=O)c2ccccc2N2C(=O)c3ccccc3C12 (centres undefined) | . | . | 1.5 | -1 | 10 | -2 | 2496
COc1ccccc1/C=C1\SC(=O)N(CC(=O)N(C)C2CCS(=O)(=O)C2)C1=O (centres undefined) | 3 | -4 | 2.0 | 3 | 3 | -17 | 4770
Cc1ccccc1N(C(=O)CNC(=O)c1ccco1)C(C(=O)NC1CCCC1)c1ccncc1 (centres undefined) | 1 | -2 | 3.5 | 5 | 3 | -32 | 3205
CC(C)c1ccc(/C=N/NC(=O)c2cccc(Cl)c2)cc1 | . | . | . | . | 2 | -147 | 2080
O=C(/C=C/c1cccc2ccccc12)NCCC1=CCCCC1 | . | . | -2.2 | -10 | -1 | -15 | 2735
CC(CC(=O)Nc1cccnc1)c1ccccc1 (centres undefined) | -1 | 1 | 5.7 | 1 | 6 | -7 | 4450

Not a retest: six of the compounds above.
SMILES | Mtb hypoxia rep | Mtb hypoxia rep growth | RN4220 kill | Sa ugtP lethal | BJeLR viability | PrP UTR inh | Bead autofluor
COc1ccc(-n2cnnc2SCC(=O)Nc2cccc([N+](=O)[O-])c2)cc1 | 1 | -4 | -8.0 | -4 | -7 | -9 | 4433
Cc1nc(-c2nnc(SCC(=O)Nc3ccc(C(F)(F)F)cc3)n2C)cs1 | 17 | 5 | 5.7 | 6 | -4 | -8 | 6112
COc1c(Cl)cc(Cl)cc1C(=O)Nc1ccc(C(=O)O)cc1 | 5 | 8 | 7.6 | 12 | -8 | -23 | 2299
Cc1ccccc1N1C(=O)c2ccccc2N2C(=O)c3ccccc3C12 (centres undefined) | . | . | 1.5 | -1 | 10 | -2 | 2496
COc1ccccc1/C=C1\SC(=O)N(CC(=O)N(C)C2CCS(=O)(=O)C2)C1=O (centres undefined) | 3 | -4 | 2.0 | 3 | 3 | -17 | 4770
Cc1ccccc1N(C(=O)CNC(=O)c1ccco1)C(C(=O)NC1CCCC1)c1ccncc1 (centres undefined) | 1 | -2 | 3.5 | 5 | 3 | -32 | 3205

Continuation:
SMILES | Mtb hypoxia rep | Mtb hypoxia rep growth | RN4220 kill | Sa ugtP lethal | BJeLR viability | PrP UTR inh | Bead autofluor
O=C(CSc1ncccn1)NN=Cc1cccc([N+](=O)[O-])c1 | 4 | -2 | -0.2 | 12 | . | . | .
Cc1cccc(N2CCN(C(=O)CCC(=O)N3Cc4ccccc4Oc4ncccc43)CC2)c1C | 17 | 8 | -5.7 | 4 | -3 | 4 | 5610
CCOP(=S)(OCC)Oc1cc(C)oc(=O)c1 | 10 | 5 | 2.6 | 2 | 2 | -6 | 5373
COc1ccccc1CCNC(=O)CC1C(=O)NCCN1CCCc1ccccc1 (centres undefined) | -2 | 0 | 7.6 | 13 | 4 | 9 | 4966
O=C(CCn1c(=O)sc2ccccc21)NCCC1=CCCCC1 | 10 | 8 | 4.6 | -4 | 19 | -16 | 8020
CCc1nnc(NC(=O)c2ccc(-c3cc(C(F)(F)F)ccc3Cl)o2)s1 | -1 | 0 | 2.6 | -5 | -4 | -13 | 11257
Cc1cccc(Nc2nnc(SCC(=O)NC(=O)CN3CCCC3=O)s2)c1 | 9 | 16 | 2.2 | 2 | . | 3 | 3535
CCOc1ccc(S(=O)(=O)N2CCN(S(=O)(=O)c3ccc(C(C)=O)cc3)CC2)cc1 | . | . | . | . | -2 | -22 | 3874
CCc1ccc(C2=CC(c3cc(Br)ccc3F)n3ncnc3N2)cc1 (centres undefined) | -3 | -7 | 3.6 | 6 | . | 17 | 8197
CC(C)(C)OC(=O)C[C@@H]1C/C=C\C[C@@H](CC(=O)N[C@H](CO)Cc2ccccc2)C(=O)NC[C@@H](c2ccccc2)OC1=O | -3 | 14 | 3.6 | 1 | . | -1 | 4029
COc1ccccc1NC(=S)N1CCN(C(c2ccccc2)c2ccccc2)CC1 | 9 | 10 | 29 | 14 | 0 | -1 | 3474
Cc1cccc(NC(=O)NNC(=O)c2cc3ccccc3cc2O)c1C | . | . | . | . | -11 | -26 | 4028
Nc1nc2ccc([N+](=O)[O-])cc2[nH]1 | . | . | . | . | 1 | -18 | 3701
C=CCC(CC(=O)NCCO)C(=O)NC(COC(=O)C(CC=C)CC(=O)OC(C)(C)C)Cc1c[nH]c2ccccc12 (centres undefined) | 15&2&8&7 | 9&3&20&10 | 6.1&8.0&7.4&5.4 | 3&4&8&6 | . | . | .
S=P(Nn1cnnc1)(c1ccc(Br)cc1)c1ccc(Br)cc1 | 3 | -2 | 3.6 | 0 | 0 | -30 | 4131
C=CCSc1nc2ccccc2[nH]1 | 16 | 0 | 4.9 | 9 | -6 | 11 | 2182
COCCOC(=O)C1=C(C)NC2=C(C(=O)CC(c3cccs3)C2)C1c1ccsc1 (centres undefined) | . | . | 1.7 | 12 | -2 | -15 | 3548
CC(NC(=O)C12CC3CC(CC(C3)C1)C2)C(=O)N/N=C/C1=C(N2CCOCC2)C(=C\c2ccccc2)/CC1 (centres undefined) | . | . | . | . | -9 | -13 | 2343
COc1ccc(C(=O)C23CC4CC(C2)CC(C(=O)c2ccc(OC)cc2)(C4)C3)cc1 | -2 | -5 | -0.5 | 2 | -1 | -16 | 2226
Cc1ccc2cc3cc(C(=O)NCCCN4CC(C)CC(C)C4)oc3nc2c1 (centres undefined) | 0 | 12 | -4.0 | 2 | -9 | -14 | 6111
O=S(=O)(c1ccc(=S)[nH]c1)N1CCN(Cc2ccccc2)CC1 | -1 | 4 | -13 | 19 | . | -2 | 3681
CCN(CC)C(=O)C12C(=O)Oc3ccccc3C1C2(C)C(=O)c1ccc(F)cc1 (centres undefined) | -12 | -3 | 1.0 | -2 | -10 | -26 | 5845
CCn1cc(C(=O)NCC(=O)NC(C)(C)CO)c(=O)c2cc3c(cc21)OCO3 | 12 | 4 | 1.6 | 0 | -1 | -11 | 3456
Nn1cc(-c2ccccc2)nc1SCC(=O)Nc1ccc(S(N)(=O)=O)cc1 | -14 | 5 | 4.8 | 6 | 4 | -11 | 4580
Cc1cc(NC(=O)c2sc(Nc3cccc(C(F)(F)F)c3)nc2N)no1 | -3 | 2 | 2.7 | -1 | -1 | -19 | 7048
Cn1c(=O)c2ccccc2n(Cc2ccccc2Cl)c1=O | . | . | . | . | -1 | -7 | 3368
